FGF22 binding: binders of recombinant human FGF22 by thermal shift | Q9HCT0 | SYPRO orange fluorescence; percent of sucrose octasulfate shift, DMSO zero | calls only at 9.99 µM | 340,000 compounds, 1.5% hits | AID 651658;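 active = melting point raised past a set limit in the mean and every replicate; inconclusive = no clear call; three in four hits are not shown here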
Target sequence (Q9HCT0 whole entry, looked up): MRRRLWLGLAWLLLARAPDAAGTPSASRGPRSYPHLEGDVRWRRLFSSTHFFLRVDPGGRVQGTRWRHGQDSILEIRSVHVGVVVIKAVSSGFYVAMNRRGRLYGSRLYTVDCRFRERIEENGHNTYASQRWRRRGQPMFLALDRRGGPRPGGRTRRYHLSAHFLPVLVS
AF4-AF9 inh: MLL-AF4/AF9 protein interaction inhibition | inhibition, % at 10 µM | AlphaScreen, biotin-AF4 peptide binding to FLAG-AF9 | 350,000 compounds, 0.47% hits;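 active = every replicate reaching a set inhibition limit, whatever the replicate mean, cut at about 25% in these data; inconclusive = mean inhibition reaches that limit but some replicates miss it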;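 note: 0% = plate neutral control median and 100% = total signal loss; the record names both 10 and 1 µM as test concentration; the first replicate is given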
Target sequence (P42568 whole entry, looked up): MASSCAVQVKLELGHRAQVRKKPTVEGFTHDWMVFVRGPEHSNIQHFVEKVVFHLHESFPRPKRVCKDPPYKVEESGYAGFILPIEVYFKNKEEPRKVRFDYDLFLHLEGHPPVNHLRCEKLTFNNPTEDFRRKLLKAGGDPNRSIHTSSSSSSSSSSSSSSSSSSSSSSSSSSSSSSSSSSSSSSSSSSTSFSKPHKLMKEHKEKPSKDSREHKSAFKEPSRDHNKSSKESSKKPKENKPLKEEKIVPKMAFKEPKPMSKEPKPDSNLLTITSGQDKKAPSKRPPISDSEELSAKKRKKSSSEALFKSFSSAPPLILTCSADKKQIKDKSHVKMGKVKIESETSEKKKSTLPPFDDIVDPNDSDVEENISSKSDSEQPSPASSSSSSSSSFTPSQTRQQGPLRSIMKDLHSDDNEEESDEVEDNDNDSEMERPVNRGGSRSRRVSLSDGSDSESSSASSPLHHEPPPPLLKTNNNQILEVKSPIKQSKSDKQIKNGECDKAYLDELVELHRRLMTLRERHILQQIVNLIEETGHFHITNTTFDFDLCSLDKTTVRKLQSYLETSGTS
RanGTP-Impb inh: disruptors of Ran-importin-beta complex formation – biochemical, FRET, CFP-Ran, YFP-importin-beta, homogeneous, primary screen; 300,000 compounds, 1.1% hits; cell-free CFP-Ran/YFP-importin-beta FRET ratio; inhibition, % (no concentration beside the values);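 active = most replicates above 15%; inconclusive = exactly half above 15%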;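 note: 0% = DMSO wells and 100% = Ran loaded with GDP instead of GTP; wells of about 40 µL received 100 nL stock; the first replicate is given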
rRNA inh HTS: inhibits bacterial ribosomal RNA function over humanized ribosomes | AID 720706 | GFP signal change (wild-type ribosome), % (no concentration beside the values) | 350,000 compounds, 1.6% hits | E. coli WT GFP vs humanized-ribosome RFP mutants, fluorescence, 24 h; active compounds read low; DMSO median 0, no signal -100;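 active = significant combined selectivity score with lowered wild-type GFP, culture density cut under 30%, mutant RFP and density less affected; inactive = any of these conditions unmet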; note: one replicate is shown; some compounds called inactive have numbers as strong as hits
T cruzi repl: blocks replication of Trypanosoma cruzi. inhibition, % (concentration not given with the values). T. cruzi beta-gal in NIH3T3, luminescence, 90 h. AID 1885. 300,000 compounds, 1.4% hits;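 active = mean inhibition across valid replicates above about 55%, limit read from the data; inconclusive = mean below that limit but half or more replicates reach it; inactive = mean below it, under half of replicates reach it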;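 note: signal also drops with host cell toxicity which is not excluded here; 0% = plate median of DMSO wells and 100% = zero luminescence signal; higher percent means less beta-gal luminescence so fewer parasites; stock transfer was 50 nL into about 50 µL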
ALR H2O2 inh: blocks human ALR sulfhydryl oxidase activity; P55789; inhibition, % (test concentration not listed); purified ALR, DTT oxidation, H2O2 HRP-luminol luminescence; 290,000 compounds, 3.8% hits;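 active = mean and each replicate at 75% or more; inconclusive = only one of the two met; inactive = neither met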;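 note: stock transfer was 7.5 nL into about 7.5 µL; 0% = neutral wells and 100% = wells with inactivated enzyme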
Target sequence (P55789 whole entry, looked up): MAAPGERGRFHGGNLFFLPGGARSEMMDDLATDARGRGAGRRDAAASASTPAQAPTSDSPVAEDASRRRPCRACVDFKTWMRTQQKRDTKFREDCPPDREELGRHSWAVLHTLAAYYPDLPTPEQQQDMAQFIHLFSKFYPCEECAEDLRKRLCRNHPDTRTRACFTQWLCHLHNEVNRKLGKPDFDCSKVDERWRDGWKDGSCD
Beta cell apopt: blocks beta cell apoptosis; protection from apoptosis, % (concentration not given with the values); INS-1E cytokine-induced death, ATP luminescence, 48 h; percent of positive-control rescue, neutral wells zero; 300,000 compounds, 0.8% hits; AID 435005;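 active = all replicates at 75% or more, or half of them and the mean; inconclusive = half reach 75% but not the mean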;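 note: 0% = cytokine-treated negative control wells and 100% = positive control rescue; higher means more ATP so stronger rescue from cytokine killing; wells of about 40 µL received 100 nL stock; the first replicate is given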
Calb FLC: affects C. albicans growth with fluconazole. AID 1979. C. albicans CaCi-2 (fluconazole-resistant clinical isolate) + fluconazole, Alamar Blue growth, 48 h. growth inhibition, % (no concentration beside the values). 300,000 compounds, 0.57% hits;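 active = most replicates above 75%; inconclusive = exactly half above 75%; inactive = most below 75%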;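 note: all wells also contain fluconazole at 8 µg/ml as a sub-toxic cotreatment; 0% = median of DMSO wells and 100% = median of geldanamycin control wells; wells of about 8 µL received 7.5 nL stock; the first replicate is given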
rRNA inh HTS OD600: further read-out of rRNA inh HTS, marked with its call; OD600 change, %; measured here: OD600 growth;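 optical density of the mix in the first replicate; 0 = DMSO median and -100 = no signal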
rRNA inh HTS RFP: further read-out of rRNA inh HTS, marked with its call; RFP signal change, %; measured here: RFP humanized mutant strains;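 first replicate; 0 = DMSO median and -100 = no signal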
Active calls of the source: *; i = inactive; u = inconclusive; x = no result given. An excerpt, so the mix of outcomes need not match the whole.

SMILES	FGF22 binding	AF4-AF9 inh	RanGTP-Impb inh	rRNA inh HTS	rRNA inh HTS OD600	rRNA inh HTS RFP	T cruzi repl	ALR H2O2 inh	Beta cell apopt	Calb FLC
CCOCCCNC(=O)C(NC(=O)c1ccc(=O)[nH]c1)c1ccc(C)cc1 (stereo not drawn)	i	0.8	-1.1	9	9	1.1	1	x	-9	3
CCOCCCNC(=O)c1ccccc1NC(=O)C1=C(C)OCCS1	i	1.0	-1.0	6	0	0.0	-6	-3	-5	-2
CCN1CCN(CC(O)COC(C)C)CC1 (stereo not drawn)	x	x	-3.7	x	x	x	-15	-19	-2	0
O=C(N/N=C\c1ccc(Cl)cc1)C1=NOC2COC3(CCN(c4ccc([N+](=O)[O-])cc4)CC3)OCC12 (stereo not drawn)	i	14	-0.7	4	2	1.4	22	0	1	6
O=C(NNS(=O)(=O)c1ccc(F)cc1)C1CCN(S(=O)(=O)c2ccccc2)CC1	i	-1.3	2.0	15	8	1.7	-3	5	-4	16
O=C1CCN(S(=O)(=O)c2ccccc2)CCN1CCOCc1ccccc1	i	0.3	u	0	8	-1.7	3	-1	-2	-3
COc1ccc(CNc2nc3c(c(=O)n(Cc4ccc(Cl)cc4)c(=O)n3C)n2C)cc1	x	x	12	x	x	x	-17	-1	1	-11
Cc1cccc(CN2CCN(CC(C)C)C(CCO)C2)n1 (stereo not drawn)	i	u	6.3	9	2	-1.2	8	x	-5	u
CC1=C(CC(=O)c2ccccc2)C(=O)c2ccccc2C1=O	x	x	3.3	x	x	x	-5	3	98*	-19
CCCC[n+]1ccn(C2=C([O-])c3ccccc3C(=O)/C2=N\S(=O)(=O)c2ccc(Br)cc2)c1	i	1.7	1.2	15	5	4.5	11	-19	90*	4
CCOc1ccccc1C(C(=O)NC1CCCC1)N(Cc1ccco1)C(=O)CNC(=O)c1ccco1 (stereo not drawn)	x	x	9.3	x	x	x	-17	0	0	2
NC(=S)n1[nH]c(-c2ccccc2)c(N=Nc2ccccc2C(=O)N2CCOCC2)c1=O	i	2.6	-2.1	12	17	2.2	2	6	7	100*
CCCCN1C(=O)c2ccc(C(=O)NC3(C)CCS(=O)(=O)C3)cc2C1=O (stereo not drawn)	i	-1.0	x	9	8	1.2	x	0	-2	x
CCc1ccc(/C=N/NC(=O)c2cc(C3CC3)nc3ccc(Br)cc23)s1	x	x	-2.5	x	x	x	13	0	32	-1
COC(=O)NCC(c1cccnc1)N1CCOCC1 (stereo not drawn)	i	6.1	-3.9	3	7	1.7	-4	-13	-5	11
OCC[C@@H]1C[C@@H](O)[C@H](O)[C@]2(Cc3ccccc3CO2)O1	i	-0.8	-0.6	7	0	-4.4	-4	6	5	19
NC(=O)c1sc2nc(N3CCOCC3)c3c(c2c1N)CCCC3	x	x	0.1	x	x	x	16	6	1	5
O=c1[nH]c2cccnc2n1Cc1ccco1	i	-57	-0.3	18	12	-13	-6	0	0	-5
O=C(COC(=O)c1ccccc1-c1nc2ccccc2s1)Nc1ccccc1C(F)(F)F	i	-3.1	-0.5	0	-3	1.8	-10	x	-9	9
Cc1ccc(SCC(=O)OCC(=O)NCCc2ccccc2)cc1C	i	-1.1	x	-3	-4	-0.6	x	-9	2	x
CCOC(=O)c1c(NC(=O)CN2C(=O)NC3(CCCCCC3)C2=O)sc(C)c1-c1ccc(C)cc1	i	-2.3	1.6	15	11	1.4	36	-33	-5	3
O=C(CN1CCN(c2ccccc2O)CC1)NC(=O)NCc1ccco1	i	-9.5	u	6	-5	0.1	-16	71	-8	-7
CCOc1[nH]n(-c2ccccc2)c(=O)c1C=Nc1ccc(C(=O)OC)cc1	i	-0.1	-5.6	11	7	-1.5	-8	-20	-3	-4
Cc1c(O)ccc2cc(S(=O)(=O)c3ccccc3)c(=O)oc12	i	-2.2	132*	-14	-18	2.2	-27	x	-2	6
CCn1c(-c2ccccc2Cl)nn(CC(=O)Nc2cc(Cl)ccc2Cl)c1=S	x	x	0.6	x	x	x	8	-14	5	-2

The list goes on:
SMILES	FGF22 binding	AF4-AF9 inh	RanGTP-Impb inh	rRNA inh HTS	rRNA inh HTS OD600	rRNA inh HTS RFP	T cruzi repl	ALR H2O2 inh	Beta cell apopt	Calb FLC
CC1CC(C)CN(C(=O)C2CCN(S(=O)(=O)N3CCC4(CC3)OCCO4)CC2)C1 (stereo not drawn)	i	0.9	4.7	4	-3	-3.7	-3	-3	0	-7
COc1ccccc1NC(=O)COC(=O)c1oc2ccccc2c1C	i	0.4	3.5	1	0	0.2	9	4	6	-2
CCCc1cc(=O)[nH]c(SCC(=O)Nc2ccc3ccccc3c2)n1	i	2.6	x	4	7	6.6	x	18	-8	x
CCOC(=O)c1cc(NC(=O)c2ccc(C)cc2)c(=O)oc1-c1ccccc1	x	x	-1.6	x	x	x	-3	-8	-4	-19
CN(CC(=O)Nc1ccc(Cl)c(C(F)(F)F)c1)C(=O)CNC(=O)C1CCCCC1	i	-1.9	x	x	x	x	x	3	2	x
COc1ccc(S(=O)(=O)Nc2ccccc2C(=O)N2CCCCC2)cc1C	i	-0.1	3.5	-10	-10	-4.7	9	8	0	-7
CCC(C(=O)Nc1cccc(C(F)(F)F)c1)c1ccccc1 (stereo not drawn)	x	x	0.6	x	x	x	6	3	0	-8
CC1(CO)COC(c2ccccc2)=N1 (stereo not drawn)	i	0.0	-0.6	2	6	3.8	-18	-8	-6	-1
CCN(C(=O)c1cc2c(=O)n3ccccc3nc2s1)C1CCCCC1	i	-6.2	4.9	-7	-6	1.9	18	x	4	-1
CC1CN(C(=O)CSc2nnc3c(Cl)cc(Cl)cn23)CC(C)O1 (stereo not drawn)	x	x	6.4	x	x	x	-11	-2	1	-7
CC(=O)N1N=C(c2ccncc2)OC1(Cc1ccccc1)Cc1ccccc1	i	4.3	-3.6	-38*	-22*	-2.9*	u	-12	-1	0
Cc1ccc(NC(=O)c2ccc(Cn3cc([N+](=O)[O-])cn3)cc2)c(C)c1	i	5.5	1.2	-17	-32	3.6	-38	-7	3	-6
Cc1cc(C(=O)CSc2nn3c(=O)c(C(C)(C)C)nnc3s2)c(C)n1-c1ccc(F)cc1	x	x	-1.2	x	x	x	34	-11	8	-11
COc1ccc(N2CCN(S(=O)(=O)c3c(C)noc3/C=C/N(C)C)CC2)cc1	i	-4.6	u	11	10	0.9	4	-5	0	-4
CCOC(=O)c1csc(NC(=O)c2cc(-c3ccccn3)nc3ccccc23)n1	i	-0.5	x	10	12	1.7	x	-11	-3	x
CC(C)CC(O)C1CCN(C(=O)CCc2nnc(-c3ccc4c(c3)OCO4)o2)CC1 (stereo not drawn)	i	0.0	3.7	1	-1	0.9	3	-13	-3	28
O=C(Nc1cccc(O)c1)c1ccc(Br)cc1	x	x	-2.3	x	x	x	8	-10	2	13
Cc1ccc(NC(=O)CSc2nnc(N)s2)cc1S(=O)(=O)N1CCCCC1	i	-0.1	-0.7	2	9	-1.4	-5	20	x	-6
N#Cc1c(C(F)(F)F)cc(-c2cccs2)nc1SCc1ccc(Cl)nc1	x	x	4.0	x	x	x	29	5	13	u
COc1cc(OC)cc(-c2nnc(SCC(=O)N3CCCCC3)o2)c1	i	-6.4	0.0	-10	-11	-0.4	-3	4	-2	9
COc1nc(C)ccc1-c1noc(-c2ccccn2)n1	i	-2.6	6.0	9	5	-4.5	-10	-2	0	14
CC1Cc2ccccc2N1c1ncnc2nc[nH]c12 (stereo not drawn)	x	x	-6.1	x	x	x	5	-3	2	-4
CCOC(=O)C1CCN(c2ncnc3c2cnn3-c2ccc(Cl)cc2)CC1	x	x	0.6	x	x	x	-28	x	-2	-8
CCn1ncc(Br)c1C(=O)Nc1c(C)nn(Cc2c(F)c(F)c(F)c(F)c2F)c1C	i	-1.0	x	4	-2	1.9	x	-7	-2	0
CC(C(=O)OCC(=O)NC1CCCCC1)N1C(=O)c2ccccc2C1=O (stereo not drawn)	i	-0.5	x	6	8	0.3	x	1	-4	x

The closing 2 compounds of the section before lead into the next:
SMILES	FGF22 binding	AF4-AF9 inh	RanGTP-Impb inh	rRNA inh HTS	rRNA inh HTS OD600	rRNA inh HTS RFP	T cruzi repl	ALR H2O2 inh	Beta cell apopt	Calb FLC
CCn1ncc(Br)c1C(=O)Nc1c(C)nn(Cc2c(F)c(F)c(F)c(F)c2F)c1C	i	-1.0	x	4	-2	1.9	x	-7	-2	0
CC(C(=O)OCC(=O)NC1CCCCC1)N1C(=O)c2ccccc2C1=O (stereo not drawn)	i	-0.5	x	6	8	0.3	x	1	-4	x
CCC(=O)N1CCCN(S(=O)(=O)c2ccc(C)cc2)C1c1ccc(OC)cc1 (stereo not drawn)	i	-4.5	0.9	0	6	-2.4	2	-1	4	1
COc1cccc(NC(=O)Cn2c(=O)n(CCC(=O)NC3CCN(Cc4ccccc4)CC3)c(=O)c3ccccc32)c1	i	-1.3	3.8	6	2	0.8	20	-2	-5	5
C#Cc1ccc([C@@H]2C=C(C(=O)OCC=C)O[C@H](OCc3ccc(CO)cc3)C2)cc1	i	-4.9	-2.1	-15	-21	-7.8	7	-10	0	8
CC1CC(C)(C)NC(=S)N1CCCC(=O)Nc1ccccc1F (stereo not drawn)	x	-2.1	1.0	16	12	2.2	-11	0	-2	-11
Cc1ccc2[nH]c3c(=O)n(CC(=O)Nc4ccccc4N4CCN(C)CC4)ncc3c2c1	i	0.9	4.6	0	0	3.3	9	-3	-9	-13
CC1CCC2(CC1)NC(=O)N(Cc1cc(=O)n3ccsc3n1)C2=O (stereo not drawn)	x	x	u	x	x	x	-6	-31	-4	-17
COc1ccc2[nH]c(=O)c(COC(=O)c3cccs3)cc2c1	x	x	2.0	x	x	x	-2	-5	-2	-4
Cc1cc(=O)n2nc(N3CCC(C(=O)NCc4ccccc4Cl)CC3)sc2n1	i	1.8	3.2	3	10	3.7	-1	-2	-4	26
CCOC(=O)c1[nH]c(C)c(C(=O)Nc2ccc(F)cc2)c1C	i	-0.4	-2.1	2	8	0.2	-7	-1	-2	-7
COc1cccc(NC(=O)NC2CCN(Cc3nnnn3Cc3ccc4c(c3)OCO4)CC2)c1	i	6.9	0.8	-18	-30	-5.0	11	-2	-6	2
COc1ccc(CC(=O)Nc2nc3ccccc3s2)cc1S(=O)(=O)N1CCOCC1	x	x	4.3	x	x	x	-15	-4	-14	-7
Cc1onc(-c2ccccc2)c1C(=O)NNC(=S)NC(=O)c1ccc(Br)cc1	i	6.3	1.2	-43	-38	-15	5	49	-2	u
CCCC(=O)Nc1c(-c2cccc(C)c2)c(=O)c2ccccc2n1C	i	0.1	2.0	6	8	-1.6	4	-22	-3	2
COc1ccccc1N=c1sc2ccccc2n1C	x	x	2.0	x	x	x	8	56	-4	7
CC1(C)C2CCC1(CS(=O)(=O)N1CCCC1C(=O)O)C(=O)C2 (stereo not drawn)	i	-0.1	x	4	10	0.9	x	-2	-10	x
CC(=O)NCCNC(=O)c1ccc(Sc2ccccc2)c([N+](=O)[O-])c1	i	2.3	0.0	13	2	0.2	2	17	1	1
N#Cc1ccc(-c2cn3c(n2)SCC3)cc1	i	0.7	0.1	4	4	-0.3	-11	15	1	-2
COc1ccc(NS(=O)(=O)c2ccc(C)cc2)c([N+](=O)[O-])c1	i	3.3	3.6	-1	-16	-3.1	u	-5	-6	22
